Bioassay records from PubChem BioAssay.
MT1-MMP act inh: MT1-MMP (human) activation inhibition; GFP/RFP ratio change, % at 20 µM; AID 651647; 0.061% of 360,000 active; HT1080 RFP-PRO-GFP cells, GFP/RFP ratio fluorescence, overnight; percent of plate control window, DMSO zero; P50281;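 active = GFP/RFP ratio change of at least 30% with cell ATP level not reduced by more than half and red fluorescence within 50% of control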; note: strong numbers were not always called active
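Assay system: HT1080 cells carrying an RFP-PRO-GFP reporter | Dosing: Single dose of 20 µM compound, 1% DMSO final | Incubation: Cells overnight before dosing, compound overnight, 37 °C, 5% CO2 | Evaluation: GFP/RFP fluorescence ratio | Control set: DMSO and RFP-L50D-GFP cell wells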
UUG fidelity: yeast start codon fidelity modulation. S. cerevisiae UUG-firefly luciferase reporter, luminescence/redox ratio. activity score, % at 18.7 µM. 0.13% of 350,000 active. AID 602363;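 active = replicate mean at a twofold rise or more, about +100% in these data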;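 note: firefly luciferase made from a UUG start codon reports start codon fidelity; reporter light over untreated wells divided by growth signal over untreated wells; some hits fall short of that in this replicate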
Rce1 inhib: yeast Ras-converting enzyme inhibition; yeast membranes, quenched prenylated peptide cleavage fluorescence; calls only; 0.27% of 290,000 active; AID 2563;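 active = fall in fluorescence gain of 50% or more versus controls, with final raw signal at or below 3038400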;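 note: plate controls were neutral control wells for no effect and wells lacking membranes for full effect; tested at 10 µM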
Target sequence (Q03530 whole entry, looked up): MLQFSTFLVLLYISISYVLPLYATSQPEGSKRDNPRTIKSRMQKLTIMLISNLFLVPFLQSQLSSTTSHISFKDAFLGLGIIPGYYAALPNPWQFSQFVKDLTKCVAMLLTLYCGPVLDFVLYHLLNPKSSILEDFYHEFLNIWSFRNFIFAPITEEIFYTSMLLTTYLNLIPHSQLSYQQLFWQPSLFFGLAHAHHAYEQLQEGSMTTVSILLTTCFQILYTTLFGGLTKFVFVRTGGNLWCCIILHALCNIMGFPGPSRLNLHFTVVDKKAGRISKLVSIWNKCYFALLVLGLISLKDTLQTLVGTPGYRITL
eIF4H inh: inhibitors of RNA binding by human eIF4H; Q15056; eIF4H fluorescence polarization binding assay; inhibition, % at 35 µM; 0.94% of 290,000 active; AID 2012;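 active = 50% or more with normal probe brightness, or confirmed in later tests; about a fifth of its hits are not listed in these tables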;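 note: calls also rest on retests at 20 µM and on dose response follow-up; 0% = protein and probe with vehicle and 100% = probe without protein; strong numbers were not always called active; many hits fall short of the cut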
PABP polyA inh: PABP-poly(A) binding inhibition. PABP-poly(A) RNA binding, fluorescence polarization. P11940. inhibition, % at 35 µM. 1% of 290,000 active;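 active = 50% or more with normal probe brightness, or confirmed in later tests; about a fifth of its hits are not listed in these tables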;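 note: calls also rest on retests at 20 µM and on dose response follow-up; controls were probe without protein and protein plus probe with vehicle; some compounds called inactive have numbers as strong as hits; many hits fall short of the cut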
CSC inhib: cancer stem cell inhibition; cancer stem cell-like cells viability, luminescence; inhibition, % at 7.5 µM; 1.1% of 300,000 active;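 active = mean at 75% or more and at least half the replicates too; tested in HMLE shEcad cells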;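 note: 0% = median of negative and 100% = median of positive control wells; the first replicate is given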
Env fusion inh: HIV envelope-mediated fusion inhibition; HeLa-JRFL Env/CEM21 cell fusion, luciferase; inhibition, % at 12.3 µM; 1.1% of 360,000 active; AID 651610;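 active = mean replicate inhibition score of at least 50 and every replicate individually at or above 50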;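 note: 0% = plate neutral controls and 100% = maraviroc near 300 nM; one replicate is shown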
eIF4H inh retest: further read-out of eIF4H inh, marked with its call; inhibition, %; compound at 20 µM; confirmation average;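 mean of two retest wells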
PABP polyA inh retest: recorded beside PABP polyA inh, whose call it bears; inhibition, %; compound at 20 µM; confirmation repeats;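 mean of two retest wells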
MT1-MMP act inh RFP: also measured in MT1-MMP act inh; calls as there; RFP signal change, %; measured here: RFP expression control read;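 0 = vehicle wells; hits needed this value within 50% of zero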
* = called active by the depositor.

Screening Cc1oc(-c2cc(F)ccc2F)nc1CN1CCN(C)C(=O)[C@@H]1C returned MT1-MMP act inh -2, Rce1 inhib inactive, eIF4H inh 0, PABP polyA inh 4, Env fusion inh 2 and MT1-MMP act inh RFP 3.
`Oc1ccc(-c2csc(Nc3ncccn3)n2)c(O)c1` gave MT1-MMP act inh 7, Rce1 inhib inactive, eIF4H inh 8, PABP polyA inh 10, CSC inhib -2, Env fusion inh -71 and MT1-MMP act inh RFP 2.
For COc1ccc(Cc2nnc(-c3cccc(C)c3)o2)cc1OC the results were MT1-MMP act inh 5, UUG fidelity -12, Rce1 inhib inactive, eIF4H inh -2, PABP polyA inh -3, CSC inhib -5 and MT1-MMP act inh RFP -9.
Cc1ccc(CN2CCCN(Cc3c(F)cccc3Cl)S2(=O)=O)cc1 was read as MT1-MMP act inh -4, UUG fidelity -9, Rce1 inhib inactive, eIF4H inh -1, PABP polyA inh 3, Env fusion inh 7 and MT1-MMP act inh RFP -1.
Cc1ccc2c(c1)cc(CN(Cc1ccc3c(c1)OCO3)S(=O)(=O)c1ccccc1)c1nnnn12 was read as MT1-MMP act inh -1, Rce1 inhib inactive, eIF4H inh -3, PABP polyA inh -5, CSC inhib 2, Env fusion inh -26 and MT1-MMP act inh RFP -6.
For Cc1csc(NC(=O)Cn2cnnn2)n1 the results were MT1-MMP act inh -4, UUG fidelity -17, Rce1 inhib inactive, eIF4H inh 0, PABP polyA inh -1, CSC inhib -11 and MT1-MMP act inh RFP 3.
Cc1ccc(N2C(=O)C3C=NNC3C2=O)cc1 (stereo not given) was read as MT1-MMP act inh -6, Rce1 inhib inactive, eIF4H inh -1, PABP polyA inh 11, CSC inhib -2, Env fusion inh -13 and MT1-MMP act inh RFP -2.
Screening C=CC[C@@H](Cc1ccc(F)cc1)C(=O)OC[C@@H]1CCCN1C(=O)[C@@H](CC=C)CC(=O)NCCO returned MT1-MMP act inh 4, UUG fidelity 4, CSC inhib -15, Env fusion inh 15 and MT1-MMP act inh RFP -1.
COC(=O)c1c(CCl)noc1C(=O)NC(C)C was read as MT1-MMP act inh 11, UUG fidelity -16, Rce1 inhib inactive, eIF4H inh 0, PABP polyA inh -9, CSC inhib 15, Env fusion inh 23 and MT1-MMP act inh RFP 4.
COc1cc2ccccc2cc1C(=O)N1CCN(C(C)=O)CC1 was read as MT1-MMP act inh -5, UUG fidelity -14, Rce1 inhib inactive, eIF4H inh -2, PABP polyA inh -2, CSC inhib -7, Env fusion inh 0 and MT1-MMP act inh RFP 0.
For COc1ccc(CCNc2nncc(=O)[nH]2)cc1OC the results were MT1-MMP act inh 3, UUG fidelity -8, Rce1 inhib inactive, eIF4H inh -15, PABP polyA inh -2, CSC inhib -8 and MT1-MMP act inh RFP 3.
COc1ccc(C(=S)N2CCOCC2)cc1OS(=O)(=O)c1ccc(Br)cc1 was read as MT1-MMP act inh 2, UUG fidelity -20, eIF4H inh -2, PABP polyA inh 2, CSC inhib -5, Env fusion inh -3 and MT1-MMP act inh RFP -5.
`CN(Cc1ccccc1)C(=O)c1ccc(NC(=O)Cc2ccc(NC(=O)C3CCCN(C(=O)C4CCCCC4)C3)cc2)cc1` (stereo not given) gave MT1-MMP act inh 7, UUG fidelity -4, Env fusion inh 21 and MT1-MMP act inh RFP -19.
`CC1=C(C(=O)Nc2ccccc2)C(c2ccc(O)cc2)N2C(=O)CSC2=N1` (stereo not given) gave MT1-MMP act inh -1, UUG fidelity -20, Rce1 inhib inactive, eIF4H inh -3, PABP polyA inh 8, CSC inhib 2, Env fusion inh -56 and MT1-MMP act inh RFP 3.
COC(=O)c1ccc2c(=O)sc(N3CCC(C(N)=O)CC3)nc2c1 was read as MT1-MMP act inh -7, UUG fidelity -12, Rce1 inhib inactive, eIF4H inh -9, PABP polyA inh -7, CSC inhib -3, Env fusion inh -27 and MT1-MMP act inh RFP 3.
COc1ccccc1N1C(=O)c2ccccc2NC1c1ccncc1 (stereo not given) was read as MT1-MMP act inh 13, UUG fidelity -13, Rce1 inhib inactive, eIF4H inh -2, PABP polyA inh -4, CSC inhib -7 and MT1-MMP act inh RFP 3.
`Cc1cccc(Cc2nnc(CCC(=O)N(C)Cc3ccncc3C)o2)c1` gave MT1-MMP act inh 1, Rce1 inhib inactive, eIF4H inh -2, PABP polyA inh -1, CSC inhib -12, Env fusion inh 10 and MT1-MMP act inh RFP 10.
Screening O=C(NC1CCCCCC1)C1CCN(C(=O)c2cccc(Cl)c2)CC1 returned MT1-MMP act inh 4, UUG fidelity -4, Rce1 inhib inactive, eIF4H inh -2, PABP polyA inh 8, CSC inhib -2, Env fusion inh 16 and MT1-MMP act inh RFP -1.
`COc1ccccc1N1CCN(c2ccc(N3C(=O)CCC3=O)cc2[N+](=O)[O-])CC1` gave MT1-MMP act inh 6, UUG fidelity -11, Rce1 inhib inactive, eIF4H inh 6, PABP polyA inh 11, CSC inhib -5, Env fusion inh 1 and MT1-MMP act inh RFP 1.
Cc1ccc(NC(=S)Nc2ccc3cn[nH]c3c2)cc1 was read as MT1-MMP act inh -2, Rce1 inhib inactive, eIF4H inh 34, PABP polyA inh -1, CSC inhib -8, Env fusion inh -8 and MT1-MMP act inh RFP -1.

2 entries drawn at random from the list so far:
COc1ccccc1N1C(=O)c2ccccc2NC1c1ccncc1 (stereo not given) was read as MT1-MMP act inh 13, UUG fidelity -13, Rce1 inhib inactive, eIF4H inh -2, PABP polyA inh -4, CSC inhib -7 and MT1-MMP act inh RFP 3.
Screening O=C(NC1CCCCCC1)C1CCN(C(=O)c2cccc(Cl)c2)CC1 returned MT1-MMP act inh 4, UUG fidelity -4, Rce1 inhib inactive, eIF4H inh -2, PABP polyA inh 8, CSC inhib -2, Env fusion inh 16 and MT1-MMP act inh RFP -1.

The results go on:
`C/C(=N\Nc1nc(C(C)(C)C)cs1)c1ccccc1` gave MT1-MMP act inh -6, UUG fidelity -29, Rce1 inhib inactive, eIF4H inh -14, PABP polyA inh -13, CSC inhib 10, Env fusion inh -159 and MT1-MMP act inh RFP -18.
For COc1cc(OC)c(NC(=S)Nc2cccc(C)c2)cc1Cl the results were MT1-MMP act inh -2, UUG fidelity -14, Rce1 inhib inactive, eIF4H inh 1, PABP polyA inh -6, CSC inhib 5, Env fusion inh 14 and MT1-MMP act inh RFP -2.
`CCOC(=O)NC(=O)/C(C#N)=C\NNc1ncc(C(F)(F)F)cc1Cl` gave MT1-MMP act inh -1, Rce1 inhib inactive, eIF4H inh -4, PABP polyA inh 6, CSC inhib 4, Env fusion inh -13 and MT1-MMP act inh RFP 5.
`CC(=O)Nc1ccc(S(=O)(=O)NCC2CCC(C(=O)NC(C)c3ccc4c(c3)OCCO4)CC2)cc1` (stereo not given) gave Rce1 inhib inactive, eIF4H inh -2, PABP polyA inh -10 and CSC inhib 2.
`Cc1ccccc1C(=O)Nc1cccc(NC(=O)c2ccccc2[N+](=O)[O-])c1` gave MT1-MMP act inh 2, UUG fidelity -11, Rce1 inhib inactive, eIF4H inh 2, PABP polyA inh 7, CSC inhib -2, Env fusion inh 16 and MT1-MMP act inh RFP 1.
Screening O=C(c1cc(COc2ccc(F)cc2Cl)on1)N1CCC(OCc2cccnc2)CC1 returned MT1-MMP act inh 7, Rce1 inhib inactive, eIF4H inh 3, PABP polyA inh 2, CSC inhib 2, Env fusion inh 13 and MT1-MMP act inh RFP 0.
Screening Cc1cc(C)cc(NC(=O)C(OC(=O)C2=COCCO2)c2ccccc2)c1 (stereo not given) returned MT1-MMP act inh -2, Rce1 inhib inactive, eIF4H inh -5, PABP polyA inh 2, CSC inhib 8, Env fusion inh -25 and MT1-MMP act inh RFP 0.
CN(CCc1ccccn1)C(=O)CN(C)S(=O)(=O)c1ccc2c(c1)c(=O)n(C)c(=O)n2C was read as MT1-MMP act inh 4, Rce1 inhib inactive, eIF4H inh -12, PABP polyA inh 0, CSC inhib 4 and MT1-MMP act inh RFP -3.
For CCOC(=O)CCSc1nc(N2CCOCC2)c2c(c1C#N)CC(C)(C)OC2 the results were MT1-MMP act inh -3, Rce1 inhib inactive, eIF4H inh -6, PABP polyA inh -1, CSC inhib 46, Env fusion inh -5 and MT1-MMP act inh RFP -4.
Cc1ccc(NC(=O)Cn2cnc3cc([N+](=O)[O-])ccc3c2=O)cc1 was read as MT1-MMP act inh 0, Rce1 inhib inactive, eIF4H inh -3, PABP polyA inh 7, CSC inhib -9, Env fusion inh -5 and MT1-MMP act inh RFP 0.
`c1ccc(Cn2c(SCCN3CCOCC3)nnc2-c2cccnc2)cc1` gave MT1-MMP act inh 3, Rce1 inhib inactive, eIF4H inh 2, PABP polyA inh 8, CSC inhib -3, Env fusion inh -62 and MT1-MMP act inh RFP 13.
For COc1ccccc1/C=N/NC(=O)c1ccc(N(C)S(=O)(=O)c2ccccc2)cc1 the results were MT1-MMP act inh 2, Rce1 inhib inactive, eIF4H inh -4, PABP polyA inh -8, CSC inhib -3, Env fusion inh 25 and MT1-MMP act inh RFP 5.
For CC(C)[C@H](NC(=O)OC(C)(C)C)c1nnc(SCc2cccc(F)c2)o1 the results were MT1-MMP act inh -3, UUG fidelity -5, Rce1 inhib inactive, eIF4H inh -3, PABP polyA inh 1, CSC inhib -11, Env fusion inh -50 and MT1-MMP act inh RFP -9.
Screening O=C(CN1C(=O)/C(=C/c2ccco2)SC1=S)Nc1ccc(O)c(C(=O)O)c1 returned MT1-MMP act inh 16, UUG fidelity -8, Rce1 inhib inactive, eIF4H inh 81*, PABP polyA inh 69*, CSC inhib -8, Env fusion inh -16 and MT1-MMP act inh RFP 36.
Cc1ccc2cc(CN(c3ccccc3C)S(=O)(=O)c3ccccc3)c(=O)[nH]c2c1 was read as MT1-MMP act inh -3, UUG fidelity -11, Rce1 inhib inactive, eIF4H inh -6, PABP polyA inh 4, CSC inhib -3, Env fusion inh -22 and MT1-MMP act inh RFP -6.
`N#Cc1cccc(OC(=O)c2ccc3c(=O)n4c(nc3c2)CCC4)c1` gave MT1-MMP act inh 3, UUG fidelity -6, Rce1 inhib inactive, CSC inhib 3, Env fusion inh 8 and MT1-MMP act inh RFP 5.
`O=C(C1CC(=O)N(C2CCCC2)C1)N1CCN(c2cccc(Cl)c2)CC1` (stereo not given) gave MT1-MMP act inh 0, UUG fidelity -4, Rce1 inhib inactive, eIF4H inh -3, PABP polyA inh 0, CSC inhib -3 and MT1-MMP act inh RFP -8.
Screening CC1SCC(=NOCc2ccccc2)CS1 (stereo not given) returned MT1-MMP act inh -2, UUG fidelity -19, Rce1 inhib inactive, eIF4H inh -6, PABP polyA inh 2, CSC inhib 2, Env fusion inh -21 and MT1-MMP act inh RFP 2.
For O=C(CCCCl)Oc1ccc2cc(-c3ccc4ccccc4n3)c(=O)oc2c1 the results were MT1-MMP act inh -112, eIF4H inh 52*, PABP polyA inh -12, CSC inhib 29, Env fusion inh 4, eIF4H inh retest 60*, PABP polyA inh retest 48 and MT1-MMP act inh RFP 3.
CCN1CCN(c2ccc(NC(=O)c3cccc(OCc4ccccc4)c3)cc2)CC1 was read as MT1-MMP act inh 9, UUG fidelity -10, Rce1 inhib active, eIF4H inh -15, PABP polyA inh -5, CSC inhib 52, Env fusion inh 42 and MT1-MMP act inh RFP 0.
Screening CCN(CC)CCCNC(=O)Cn1ncn2cccc2c1=O returned MT1-MMP act inh 1, Rce1 inhib inactive, eIF4H inh -3, PABP polyA inh 1, CSC inhib -16, Env fusion inh -23 and MT1-MMP act inh RFP 1.
CCc1nnc(NC(=O)CSc2nnc(-c3ccccc3O)n2-c2ccc(C)cc2)s1 was read as MT1-MMP act inh -2, Rce1 inhib inactive, eIF4H inh 4, PABP polyA inh -7, CSC inhib 50, Env fusion inh -84 and MT1-MMP act inh RFP -5.

The list is partial. The share of hits here may be higher or lower than overall.
